Mtb growth – Mycobacterium tuberculosis H37Rv growth inhibition, cell based, confirmatory dose response (AID 1949); 100,000 tested, 1.6% active; M. tuberculosis H37Rv growth inhibition; most inactive calls were filed without a number and no value below 0 was filed; inhibition, % at 10 µg/mL, or IC50 in µg/mL where a hit was titrated;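 active = confirmed in a dose series; inconclusive = about 50% or more but not retested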;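 note: bacteria grown 7 days with compound before Alamar blue readout; 0% = untreated bacteria and 100% = reference antibiotic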
Active calls of the source: *; i = inactive; ? = inconclusive. The list is partial; count on the stated rates, not on these rows.

#	Compound	Mtb growth
1	CCOC(=O)c1c(NC(=O)c2ccccc2F)sc(C(=O)Nc2ccc3c(c2)OCO3)c1C	i
2	COc1ccc(Nc2nc(Nc3ccc(OC)cc3OC)nc(N3CCOCC3)n2)c(OC)c1	3.4%
3	Cc1c(C(=O)Nc2ccccc2-c2ccccc2)oc2ccccc12	i
4	COCC(=O)Nc1cc(Cl)c(Cl)cc1Cl	i
5	O=C(Cc1cccs1)Nc1ccc(OCc2ccccc2)cc1	i
6	CN(CC(O)COc1ccccc1F)C1CCCCC1 (stereo not drawn)	i
7	COc1ccc(N2CC(C(=O)Nc3c(C)cc(C)cc3C)CC2=O)cc1 (stereo not drawn)	i
8	C=CCN(CC=C)CCOc1ccc(Cl)cc1	i
9	COc1cc(-c2nc3ccccc3s2)ccc1OCC(=O)Nc1ccc(C)cc1	42.0%
10	CC1CC(C)CN(Cc2nc(N)nc(Nc3ccccc3)n2)C1 (stereo not drawn)	?
11	C=C(C)Cn1c(C2CC(=O)N(c3ccccc3)C2)nc2ccccc21 (stereo not drawn)	i
12	Cc1ccc(NC(=O)CSc2nnc(-c3ccccc3C)n2C)cc1Cl	i
13	Cc1ccc(SCCC(=O)NCC2CCCO2)cc1 (stereo not drawn)	1.3%
14	CCc1ccc(NS(=O)(=O)c2cc(Br)ccc2OC)cc1	2.5%
15	CC(C)C(NC(=O)C12CC3CC(CC(C3)C1)C2)C(=O)Nc1ccccc1 (stereo not drawn)	i

Given with each value named: entries from further up
4. COCC(=O)Nc1cc(Cl)c(Cl)cc1Cl
  Mtb growth = i

5. O=C(Cc1cccs1)Nc1ccc(OCc2ccccc2)cc1
  Mtb growth = i

6. CN(CC(O)COc1ccccc1F)C1CCCCC1 (stereo not drawn)
  Mtb growth = i

7. COc1ccc(N2CC(C(=O)Nc3c(C)cc(C)cc3C)CC2=O)cc1 (stereo not drawn)
  Mtb growth = i

The listing continues.
#	Compound	Mtb growth
16	COc1ccc(C(=O)Nn2c(SCC(=O)c3ccc(F)cc3)nc3ccccc3c2=O)cc1	34.2%
17	Nc1nnc(SCc2cc(Cl)ccc2Cl)s1	8.0%
18	O=S1(=O)N=C(Nc2ccc(N3CCOCC3)cc2)c2ccccc21	0.9%
19	Cc1ccc(Cl)cc1NC(=O)c1ccccc1	i
20	CCOc1ccc(C(=O)N2CCc3cc(OC)c(OC)cc3C2c2ccccc2)cc1 (stereo not drawn)	i
21	CCOC(=O)C1CCN(C(=O)C2CCN(Cc3cc(OC)ccc3OC)CC2)CC1	i
22	N#C/C(=C/c1ccccc1[N+](=O)[O-])c1ccc(C#N)cc1	i
23	COc1ccc(C(=O)N2CCN(Cc3cc(OC)c(OC)cc3OC)CC2)cc1	i
24	Cc1sc2ncn(C)c(=O)c2c1-c1ccccc1	2.1%
25	COc1ccc(OC)c(NC(=O)CNC(=O)c2ccccc2F)c1	0.8%
26	CCOC(=O)C(C)n1cnc2scc(-c3ccc(CC)cc3)c2c1=O (stereo not drawn)	3.9µg/mL*
27	CCOc1ccccc1NC(=O)CN(c1ccc(OC)cc1)S(=O)(=O)c1ccccc1	6.9%
28	O=[N+]([O-])c1ccc(OCCCSc2ncccn2)cc1	2.7%
29	O=C(CSc1ccc(Cl)cc1)NC1CCS(=O)(=O)C1 (stereo not drawn)	i
30	COc1ccccc1C(=O)Oc1ccc2c(c1)C(C)CC(C)(C)N2 (stereo not drawn)	4.97µg/mL*

A draw from above in order of SMILES length, smallest number first:
#	Compound	Mtb growth
5	O=C(Cc1cccs1)Nc1ccc(OCc2ccccc2)cc1	i
22	N#C/C(=C/c1ccccc1[N+](=O)[O-])c1ccc(C#N)cc1	i
15	CC(C)C(NC(=O)C12CC3CC(CC(C3)C1)C2)C(=O)Nc1ccccc1 (stereo not drawn)	i

Next part:
#	Compound	Mtb growth
31	CSc1ccc(S(=O)(=O)N(CC(=O)Nc2ccccc2C(=O)O)c2ccc(C)cc2)cc1	i
32	Clc1ccc(Cn2ncc3c(N4CCCCC4)ncnc32)cc1	i
33	CC(C)N(C(=O)CN(C#N)c1nc(N(C)C)nc(N(C)C)n1)c1ccccc1	1.0%
34	CN(C)c1ccc(/C=C(\C#N)c2nc3ccccc3n2C)cc1	47.6%
35	COc1ccc(S(=O)(=O)N(CCc2ccccc2)CC(=O)NCc2ccco2)cc1Cl	i
36	Cc1cc(N2C(=O)C3CCC(C)CC3C2=O)no1 (stereo not drawn)	i
37	COC(=O)COc1ccc(CSc2nnc(-c3ccc(Cl)cc3)n2-c2ccccc2)cc1	4.2%
38	CC1(C)CC(NC(=O)c2ccncc2)C(C)(C)N1O (stereo not drawn)	7.4%
39	COc1ccc(NC(=O)CCc2ccc(S(=O)(=O)Nc3ccc(C)cc3)cc2)c(OC)c1	0.8%
40	COc1cc(Br)cc2cc(C(=O)Nc3ccccc3-c3ccccc3)c(=O)oc12	38.6%
41	CCc1ccccc1NC(=O)CCCC(=O)OCC(=O)c1ccc(Cl)cc1Cl	i
42	NS(=O)(=O)c1ccc(NC(=S)Nc2cnn(Cc3ccc(Cl)cc3Cl)c2)cc1	i
43	CN1CCC(NC(=O)c2ccco2)CC1	1.0%
44	CCc1nc(SCC(=O)Nc2ccc(C(=O)OC)cc2)n[nH]1	i
45	COc1cccc(C(=O)NCCN2CCCC2)c1	0.4%
46	CS(=O)(=O)N1CCN(C(=O)Nc2ccc(F)cc2F)CC1	i
47	CCN1CCN(C2CCN(C(=O)c3cc(OC)cc(OC)c3)CC2)CC1	i
48	CC(=O)NS(=O)(=O)c1ccc(NC(=O)c2cccc3ccccc23)cc1	i
49	C#CC(CC)(CC)NC(=O)Nc1cccc(C(C)=O)c1	1.4%
50	CCOC(=O)c1cc(CC)sc1NC1=NS(=O)(=O)c2ccccc21	i
51	Cc1c(NC(=O)c2nn3c(C(F)(F)F)c4c(nc3c2Cl)-c2ccccc2CC4)c(=O)n(-c2ccccc2)n1C	i
52	CC(C)CC(=O)Nc1ccc(-c2cn3ccsc3n2)cc1	i
53	Cc1c(C(=O)Nc2ccccc2)sc2nc[nH]c(=O)c12	0.5%
54	CN(c1ccccc1C(=O)Nc1ccc(S(=O)(=O)N2CCOCC2)cc1)S(=O)(=O)c1ccccc1	i
55	Cc1cccc(Cn2c(Cc3ccccc3)nc3ccccc32)c1	3.3%
56	Cn1c(Cc2cccc3ccccc23)nnc1SCc1ccc(Cl)cc1	i
57	CCOc1cccc(C(=O)N(Cc2ccc(F)cc2)C2CCS(=O)(=O)C2)c1 (stereo not drawn)	i
58	S=C(NCc1cccnc1)Nc1ccc(Br)cc1Cl	i
59	COc1cc(Br)cc2cc(C(=O)N3CCN(c4cccc(Cl)c4)CC3)c(=O)oc12	i
60	O=C(Nc1ccccc1Cl)C1CC2CCCC(C1)C2=O (stereo not drawn)	i
61	CC(C)NC(=O)C(=O)NCCN1CCN(Cc2ccc(Cl)cc2)CC1	i
62	O=c1c(Oc2ccccc2Cl)coc2cc(OCc3ccccc3)ccc12	7.5%
63	CCN(CC)C(=O)C(C)Sc1nc2ccc(I)cc2c(=O)n1-c1ccc(OC)cc1 (stereo not drawn)	i
64	CC(=O)Oc1ccc(Br)cc1/C=C/c1ccc2ccccc2n1	i
65	CC1=C(C(=O)OC(C)(C)C)C(c2cccc3ccccc23)NC(=S)N1 (stereo not drawn)	8.1%
66	COc1cc(Cl)c(C)cc1NC(=O)c1ccc(C)c(C)c1	i
67	COc1cc(OC)cc(C(=O)N(CCCCN2C(=O)c3ccccc3C2=O)c2ccc(F)cc2F)c1	i
68	Cc1ccc(CC2CC(=O)N(c3ccc(C)cc3)C2=O)cc1 (stereo not drawn)	1.9%
69	Cc1ccc(S(=O)(=O)NC(C)(C)C(=O)Oc2ccc3c(C(F)(F)F)cc(=O)oc3c2)cc1	i
70	Cc1cc2ncn(Cc3ccc(C(C)C)cc3)c2cc1C	0.91µg/mL*
71	Cc1cc(C)c(NC(=O)Cn2nnc(-c3ccccc3Cl)n2)c(C)c1	i
72	COc1cc(NC(=O)c2ccccc2I)c(OC)cc1Cl	6.5%
73	CCOC(=O)C1CCCN(S(C)(=O)=O)C1 (stereo not drawn)	i
74	O=C(c1ccc(COCC(F)(F)F)o1)N1CCCC1	i
75	O=C(Nc1ccccc1C(=O)NCc1ccco1)c1ccc(Cl)c(S(=O)(=O)N2CCOCC2)c1	i
76	CCc1c(C)sc(NC(=O)Nc2ccc(Cl)cc2)c1C(N)=O	i
77	Cc1cc(NC(=O)c2cc3nc(-c4cccs4)cc(C(F)(F)Cl)n3n2)no1	i
78	Cc1cc(C)c(S(=O)(=O)N2CCN(CC(=O)Nc3ccc(Br)cc3)CC2)c(C)c1	i
79	CCCCOc1ccccc1NC(=O)CN1C(=O)c2ccccc2C1=O	i
80	CCC(=O)Nc1ccc(C(=O)Nc2cc(C)ccc2O)cc1	i
81	COc1ccc(OCC(=O)NC(C)c2ccc(Br)cc2)cc1 (stereo not drawn)	i
82	Cc1nc(N2C(=O)C(O)=C(C(=O)c3cccs3)C2c2ccco2)sc1C (stereo not drawn)	i
83	Cc1cccc(OCC(=O)O/N=C(\N)Cc2ccc(Cl)c(Cl)c2)c1C	0.1%
84	CCCC(=O)Nc1ccc(NC(=S)NC(=O)C(c2ccccc2)c2ccccc2)cc1	37.1%
85	Cc1ccccc1C(=O)Oc1ccc(Br)cc1C(=S)N1CCCC1	3.0%
86	CCN(CC)CCNC(=O)Cn1c(C)nc2ccccc21	i
87	O=C(NNC(=O)c1ccccc1Cl)c1ccc(NC(=O)c2ccccc2)cc1	i
88	O=C(Nc1ccc(CN2CCCCC2)cc1)c1cccc(Br)c1	i
89	COC(=O)Nc1nc(-c2ccc(OC)cc2)cs1	5.1%
90	CC(=O)c1cc(OC(=O)c2cccc(C)c2)ccc1OC(=O)c1cccc(C)c1	24.8%

The list goes on.
#	Compound	Mtb growth
91	CC1CC(C)(C)N(C(=O)c2cccs2)c2ccc(OC(=O)c3cccs3)cc21 (stereo not drawn)	2.6%
92	Cc1cc(NC(=O)Cn2cnc3c2c(=O)n(C)c(=O)n3C)ccc1Br	0.3%
93	CC(=O)Nc1ccc(C)cc1Br	i
94	CN(C1CCCCC1)C1CC(=O)N(c2ccccc2)C1=O (stereo not drawn)	i
95	COc1ccc(S(=O)(=O)N(C)CC(=O)O)c2ccccc12	i
96	Cc1ccc(C(=O)Nc2nc(-c3ccccc3)cs2)cc1Cl	9.3%
97	N#CC1(c2ccc(NC(=O)c3ccc(Cl)cc3)cc2)CCCC1	i
98	CCN1C(=O)C(O)(C2COC(C)(C)CC2=O)c2cc(Br)ccc21 (stereo not drawn)	i
99	CCOc1ccc(C2C3=C(CC(C)(C)CC3=O)NC3=C2C(=O)CC(C)(C)C3)cc1OC	i
100	COc1ccc(Cl)cc1NC(=S)NC(=O)c1ccccc1I	i
101	N/C(=N\OC(=O)COc1ccc(Cl)cc1Cl)c1ccccn1	i
102	CN(C)CCNC(=O)C(=O)Nc1ccccc1	i
103	CC(C)OC(=O)c1c(N)sc2c1CCCCC2	i
104	Cc1cc(C)nc(SCCCn2c(=O)[nH]c3ccccc32)n1	i
105	CCOc1ccc(-n2nc3cc(C)c(NC(=O)C(C)C)cc3n2)cc1	i
106	COC(=O)c1c(NC(=O)COc2c(C)ccc(C)c2C)sc2c1C(C(=O)OC)CC2 (stereo not drawn)	0.6%
107	Cn1c(C(F)(F)F)nc2c1cc(Br)c[n+]2C	i
108	COc1ccccc1NC(=O)Nc1ccc2c(c1)nnn2C	i
109	O=C(Oc1cccc(N2C(=O)CCC2=O)c1)C1CC(=O)N(c2ccc(F)cc2)C1 (stereo not drawn)	i
110	CCOC(=O)c1cnc(SCc2cccc(Cl)c2)nc1N	47.2%
111	Cc1ccc(N/C(N)=N/c2nc(C)cc(=O)[nH]2)c(C)c1	i
112	COc1ccc(CN2CCN(C3CCN(Cc4ccccc4)CC3)CC2)c(OC)c1OC	i
113	O=C1CCC(=O)N1c1nc2n(n1)C(c1ccccc1)C=C(c1ccc(Cl)cc1)N2 (stereo not drawn)	i
114	O=C(NCCN1CCCC1)c1ccc(F)cc1	3.7%
115	COc1cc(-c2nnc3sc(-c4cccnc4)nn23)cc(OC)c1OC	i
116	Cc1nc2ccc(S(=O)(=O)Nc3ccccc3C)cc2s1	i
117	O=C(NCc1ccccc1)C1CC1(c1ccccc1)c1ccccc1 (stereo not drawn)	i
118	COc1ccccc1N1CCN(C(=O)CSc2nc(-c3ccccc3)cc(=O)[nH]2)CC1	i
119	CCOC(=O)c1cc(C)sc1NC(=O)c1ccccc1Br	8.7%
120	COC(=O)c1ccc(NC(=O)CN(c2cc(Cl)c(Cl)cc2Cl)S(C)(=O)=O)cc1	i
121	COc1ccc(/C=C/C(=O)NCc2ccccn2)cc1	i
122	CCOC(=O)C1CCN(C(=O)c2ccccc2)CC1	i
123	CC(Sc1ccc(Cl)cc1)C(=O)Nc1ccccc1-c1ccccc1 (stereo not drawn)	17.0%
124	O=C(c1cc(Cl)ccc1Cl)N1CCN(c2ccccn2)CC1	1.5%
125	O=C(COc1ccc(S(=O)(=O)N2CCCc3ccccc32)cc1)Nc1ccc2c(c1)OCCO2	10.5%
126	O=C(O)c1ccc(C2Nc3c(F)cc(F)cc3C3C=CCC32)cc1 (stereo not drawn)	5.0%
127	CCN1C2=C(C(=O)CCC2)C(c2ccc(OCc3ccccc3)c(C(=O)O)c2)C2=C1CCCC2=O	i
128	O=C(CSc1ncnc2scc(-c3ccccc3)c12)N1CCOCC1	i
129	Cn1c(SCC(=O)N2CCN(c3ccccc3)CC2)nnc1-c1cc2ccccc2o1	i
130	O=C(c1ccccc1Cl)N1N=C(c2cccs2)CC1c1cccs1 (stereo not drawn)	2.2%
